Compound activity deposited in PubChem BioAssay by Broad Institute.
NOMO-1 viab = STK33 inhibitor candidate reducing NOMO-1 cell viability. NOMO-1 AML viability, CellTiter-Glo luminescence, 72 h. inhibition, % (concentration not given with the values). hit rate 7.5% among 37,000. AID 2330;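 active = most replicates above 80%; inconclusive = exactly half above 80%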;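 also: wells of about 30 µL received 25 nL stock; 0% = median of vehicle wells and 100% = reference inhibitor level; the first replicate is given; inactives centre near 10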
The depositor's hits bear a star; ? = inconclusive. The list is partial (hit frequency here may not be typical).

SMILES	NOMO-1 viab
C[C@H](CO)N1C[C@H](C)[C@@H](CN(C)S(=O)(=O)c2ccc(F)cc2)Oc2c(cccc2N(C)C)C1=O	8
CNC[C@@H]1Oc2c(cccc2N(C)C)C(=O)N([C@H](C)CO)C[C@H]1C	-20
Cc1cc(C(=O)Nc2cccc3c2O[C@@H](CN(C)Cc2ccc(Oc4ccccc4)cc2)[C@@H](C)CN([C@H](C)CO)C3=O)n(C)n1	20
Cc1noc(C)c1NC(=O)N(C)C[C@@H]1Oc2ccc(NS(=O)(=O)c3cn(C)cn3)cc2CC(=O)N([C@H](C)CO)C[C@@H]1C	2
CCOC(=O)c1ccc2nc(C(F)(F)F)nc(NCCCc3ccccc3)c2c1	47
CS(=O)(=O)c1sc(NC(=O)Nc2ccc(Cl)cc2)c2c1C=CCC2	122*
COc1ccc(NC(=O)CSc2nc(C(C)(C)C)cs2)cc1	21
C[C@H](CO)N1C[C@H](C)[C@H](CN(C)Cc2ccc(Oc3ccccc3)cc2)Oc2ccc(NC(=O)C3CC3)cc2C1=O	21
O=C(Nc1ccccc1C(=O)NCCN1CCOCC1)c1cccc([N+](=O)[O-])c1	8
Cc1ccc(S(=O)(=O)Nc2ccc3c(c2)CC(=O)N([C@@H](C)CO)C[C@@H](C)[C@@H](CN(C)C(=O)Nc2ccc(C(F)(F)F)cc2)O3)cc1	57
Cc1cccc(C)c1OCC(=O)NCc1cccnc1	2
COc1ccc(CN(C)C[C@H]2Oc3ccc(NC(=O)C4CC4)cc3C(=O)N([C@H](C)CO)C[C@@H]2C)cc1	16
Cc1noc(C)c1NC(=O)Nc1ccc2c(c1)C(=O)N([C@H](C)CO)C[C@H](C)[C@@H](CN(C)S(=O)(=O)c1ccc(F)cc1)O2	-14
C[C@H](CO)N1C[C@H](C)[C@@H](CN(C)Cc2ccc(-c3ccccc3)cc2)Oc2c(cccc2N(C)C)C1=O	72
C[C@@H]1CN([C@@H](C)CO)C(=O)Cc2cc(NS(=O)(=O)c3cn(C)cn3)ccc2O[C@@H]1CN(C)S(=O)(=O)c1ccc(Cl)cc1	-19
C[C@H](CO)N1C[C@H](C)[C@H](CN(C)Cc2ccc(C(=O)Nc3ccccc3N)cc2)Oc2ccc(NC(=O)Nc3cccc4ccccc34)cc2C1=O	?
C[C@@H]1CN([C@@H](C)CO)C(=O)Cc2cc(NS(=O)(=O)c3ccc(Cl)cc3)ccc2O[C@@H]1CN(C)C(=O)NC1CCCCC1	1
Cc1noc(C)c1S(=O)(=O)Nc1ccc2c(c1)C(=O)N([C@H](C)CO)C[C@H](C)[C@H](CN(C)Cc1ccc3c(c1)OCO3)OCCCC[C@@H](C)O2	26
Cc1nnc(SCc2nc(-c3ccc(Br)cc3)no2)n1-c1ccccc1	19
Cc1noc(C)c1S(=O)(=O)Nc1ccc2c(c1)C(=O)N([C@H](C)CO)C[C@H](C)[C@H](CN(C)C(=O)Nc1ccc(F)cc1)O2	1
COc1ccc(C)cc1NC(=O)c1ccc(OCC(=O)Nc2cccc(C(F)(F)F)c2)cc1	6
O=S(=O)(CCc1nc2ccccc2o1)c1ccc(Cl)cc1	-31
Cc1ccc(-c2nn(C)c(=O)c3ccccc23)cc1CNC(=O)CN1CCOCC1	5
CS(=O)(=O)N(CC(=O)Nc1ccc(Cl)c(Cl)c1)c1ccc(Br)cc1	115*
C[C@H]1CN([C@@H](C)CO)C(=O)c2cccc(NC(=O)c3ccc(-c4nccs4)cc3)c2O[C@@H]1CN(C)C	0

An excerpt of these results, field by field:
O=C(Nc1ccccc1C(=O)NCCN1CCOCC1)c1cccc([N+](=O)[O-])c1
- NOMO-1 viab: 8
Cc1ccc(S(=O)(=O)Nc2ccc3c(c2)CC(=O)N([C@@H](C)CO)C[C@@H](C)[C@@H](CN(C)C(=O)Nc2ccc(C(F)(F)F)cc2)O3)cc1
- NOMO-1 viab: 57

The listing picks up with the four entries that preceded the break.
SMILES	NOMO-1 viab
O=S(=O)(CCc1nc2ccccc2o1)c1ccc(Cl)cc1	-31
Cc1ccc(-c2nn(C)c(=O)c3ccccc23)cc1CNC(=O)CN1CCOCC1	5
CS(=O)(=O)N(CC(=O)Nc1ccc(Cl)c(Cl)c1)c1ccc(Br)cc1	115*
C[C@H]1CN([C@@H](C)CO)C(=O)c2cccc(NC(=O)c3ccc(-c4nccs4)cc3)c2O[C@@H]1CN(C)C	0
CCc1ccccc1NC(=O)CSc1nnc(C)s1	-11
C[C@@H]1CN([C@H](C)CO)C(=O)c2cc(NC(=O)c3ccncc3)ccc2O[C@H]1CN(C)C(=O)Nc1ccc2c(c1)OCO2	15
CS(=O)(=O)N(CC(=O)Nc1ccc(I)cc1)c1cccc2ccccc12	43
C[C@@H]1CN([C@@H](C)CO)C(=O)c2cccc(NS(=O)(=O)c3ccc(Cl)cc3)c2O[C@@H]1CN(C)C(=O)Nc1ccccc1	12
C[C@@H]1CN([C@@H](C)CO)C(=O)c2cc(NC(=O)C3CCCCC3)ccc2O[C@@H]1CN(C)C(=O)Nc1ccc(F)cc1	1
C[C@H]1CN([C@@H](C)CO)C(=O)Cc2cc(NS(=O)(=O)c3cn(C)cn3)ccc2O[C@H]1CN(C)S(=O)(=O)c1cn(C)cn1	18
C[C@@H]1CN([C@H](C)CO)C(=O)c2cccc(NS(=O)(=O)c3cn(C)cn3)c2O[C@@H]1CN(C)C(=O)Nc1cccc2ccccc12	31
C[C@@H]1CN([C@@H](C)CO)C(=O)Cc2cc(NS(=O)(=O)c3ccccc3)ccc2O[C@@H]1CN(C)Cc1ccc(Oc2ccccc2)cc1	63
C[C@@H]1CN([C@H](C)CO)C(=O)c2cc(NS(C)(=O)=O)ccc2O[C@H]1CN(C)S(=O)(=O)c1cccs1	-14
O=[N+]([O-])c1nn(-c2ccccc2)n(O)c1=NCc1ccco1	34
COc1ccc(S(=O)(=O)N(C)C[C@@H]2Oc3c(NS(=O)(=O)c4ccc(Cl)cc4)cccc3C(=O)N([C@H](C)CO)C[C@@H]2C)cc1	27
Cc1noc(C)c1NC(=O)Nc1ccc2c(c1)CC(=O)N([C@H](C)CO)C[C@H](C)[C@H](CN(C)C(=O)Nc1ccc3c(c1)OCO3)O2	16
Nc1nncn1C(=O)CCCN1C(=O)c2ccccc2C1=O	11
C[C@@H]1CN([C@@H](C)CO)C(=O)c2cc(NC(=O)CCC(F)(F)F)ccc2O[C@@H]1CN(C)S(C)(=O)=O	10
COc1ccc(NC(=O)N(C)C[C@@H]2Oc3c(NC(=O)Nc4ccccc4)cccc3C(=O)N([C@H](C)CO)C[C@@H]2C)cc1	6
Cc1ccc(CNC(=O)C2c3ccccc3Oc3ccccc32)cc1	12
C[C@@H]1CN([C@@H](C)CO)C(=O)c2cc(NC(=O)Nc3ccc4c(c3)OCO4)ccc2O[C@H]1CN(C)Cc1ccc(Cl)c(Cl)c1	95*
CC(C)=CCc1c(O)c(CC=C(C)C)c2c(c1O)C(=O)CC(c1ccc(O)cc1O)O2 (centres undefined)	116*
CCc1nc(SCC(=O)OC)c2c3c(sc2n1)CCCC3	25
C[C@@H]1CCCCO[C@H](CN(C)S(=O)(=O)c2ccc(Cl)cc2)[C@@H](C)CN([C@H](C)CO)C(=O)c2cc(NC(=O)Nc3ccc4c(c3)OCO4)ccc2O1	22
O=C(CSc1n[nH]c(-c2ccncc2)n1)Nc1ccccc1F	1
CN(C)c1ccc(NC(=O)CSc2nc3ccccc3c(=O)n2-c2ccc(Cl)cc2)cc1	1
CCOC(=O)c1cc(C2COc3ccccc3O2)sc1NC(=S)NC(=O)c1ccccc1 (centres undefined)	10
Cc1noc(C)c1S(=O)(=O)Nc1ccc2c(c1)C(=O)N([C@@H](C)CO)C[C@H](C)[C@H](CN(C)Cc1ccc(Cl)c(Cl)c1)O2	50
C[C@@H]1CN([C@H](C)CO)C(=O)Cc2cc(NC(=O)Nc3ccccc3)ccc2O[C@@H]1CN(C)Cc1ccncc1	21
Continued.
SMILES	NOMO-1 viab
C[C@@H]1CN([C@H](C)CO)C(=O)c2cccc(NC(=O)c3nc4ccccc4s3)c2O[C@@H]1CN(C)C(=O)Nc1ccccc1	6
COc1ccc(NC(=S)NCc2cn(-c3ccccc3)nc2-c2ccccc2)cc1OC	10
C[C@@H]1CN([C@H](C)CO)C(=O)Cc2cc(NC(=O)Nc3ccc(C(F)(F)F)cc3)ccc2O[C@@H]1CN(C)C	33
C[C@@H]1CN([C@@H](C)CO)C(=O)c2cc(NC(=O)c3ccncc3)ccc2O[C@@H]1CN(C)S(=O)(=O)c1ccc(F)cc1	-1
COc1cc(O[C@@H]2O[C@H](CO)[C@@H](O)[C@H](O)[C@H]2O)cc2occ(-c3ccc(O)cc3)c(=O)c12	11
COc1ccc(NC(=O)N(C)C[C@H]2OCCCC[C@@H](C)Oc3ccc(NS(=O)(=O)c4ccc(Cl)cc4)cc3C(=O)N([C@H](C)CO)C[C@@H]2C)cc1	43
Cc1cccc(NC(=O)C(C)N(c2ccc(Oc3ccccc3)cc2)S(C)(=O)=O)c1 (centres undefined)	15
Cn1cnnc1S/C=C/C(=O)c1ccc(Cl)cc1	116*
C[C@H](CO)N1C[C@H](C)[C@H](CN(C)Cc2ccc(-c3ccccc3)cc2)Oc2ccc(NC(=O)C3CC3)cc2C1=O	8
C[C@H]1CN([C@@H](C)CO)C(=O)c2cc(NC(=O)Cn3cnnn3)ccc2O[C@@H]1CN(C)C(=O)Nc1ccc(F)cc1	13
CNC[C@H]1Oc2ccc(NS(=O)(=O)c3ccc(OC)cc3)cc2CC(=O)N([C@@H](C)CO)C[C@@H]1C	-4
NC(=O)CSc1nnc(-c2cnccn2)n1-c1ccccc1	-12
COc1ccc(NC(=O)Nc2ccc3c(c2)C(=O)N([C@H](C)CO)C[C@H](C)[C@@H](CN(C)C(=O)C2CCCCC2)OCCCC[C@@H](C)O3)cc1	16
CCOc1ccc2nc(Nc3nc(C)c(Cc4ccc(C)cc4)c(=O)[nH]3)nc(C)c2c1	17
C[C@@H]1CN([C@@H](C)CO)C(=O)c2cc(NC(=O)Cc3ccccc3)ccc2O[C@H]1CN(C)CC1CCCCC1	37
C[C@H]1CN([C@@H](C)CO)C(=O)Cc2cc(NC(=O)CCC(F)(F)F)ccc2O[C@H]1CN(C)S(=O)(=O)c1ccccc1	?
C[C@H](CO)N1C[C@H](C)[C@@H](CN(C)C(=O)Nc2ccc(C(F)(F)F)cc2)Oc2ccc(NS(=O)(=O)c3ccccc3)cc2C1=O	26
COc1ccc(NC(=O)CCSc2nnc3scc(-c4ccc(C)cc4)n23)cc1	8
C[C@@H]1CN([C@H](C)CO)C(=O)c2cc(NC(=O)Cc3ccccc3)ccc2O[C@H]1CN(C)S(=O)(=O)c1ccc(F)cc1	-5
C[C@H]1CN([C@@H](C)CO)C(=O)c2cc(NS(=O)(=O)c3cccs3)ccc2O[C@H]1CN(C)C(=O)Nc1ccccc1	-11
C[C@H]1CN([C@@H](C)CO)C(=O)c2cccc(NS(=O)(=O)c3ccc(F)cc3)c2O[C@H]1CN(C)C(=O)Nc1cccc2ccccc12	61
CCC1(C)Cc2c(sc3nc(SC)nc(SCC(=O)Nc4ccc(C)cc4)c23)CO1 (centres undefined)	-10
C[C@@H]1CN([C@@H](C)CO)C(=O)c2cccc(NS(C)(=O)=O)c2O[C@@H]1CN(C)S(=O)(=O)c1cn(C)cn1	3
COc1ccc(S(=O)(=O)N(C)C[C@@H]2Oc3c(NC(=O)Nc4ccccc4)cccc3C(=O)N([C@H](C)CO)C[C@@H]2C)cc1	29
COc1ccc(S(=O)(=O)Nc2ccc3c(c2)CC(=O)N([C@H](C)CO)C[C@H](C)[C@H](CN(C)C(=O)Nc2ccccc2)O3)cc1	-12
New compounds follow:
SMILES	NOMO-1 viab
COC(=O)c1cc(OC)c(OC)cc1NC(=O)c1c(-c2ccccc2)noc1C	4
COc1ccc(S(=O)(=O)Nc2ccc3c(c2)C(=O)N([C@H](C)CO)C[C@@H](C)[C@H](CN(C)C(=O)NC(C)C)O3)cc1	-21
C[C@H]1CN([C@@H](C)CO)C(=O)Cc2cc(NS(=O)(=O)c3ccc(F)cc3)ccc2O[C@H]1CN(C)S(=O)(=O)c1ccc(F)cc1	13
CNC[C@H]1Oc2ccc(NC(=O)Cc3cn(C)c4ccccc34)cc2C(=O)N([C@H](C)CO)C[C@H]1C	4
C[C@H]1CN([C@@H](C)CO)C(=O)c2cc(NC(=O)Nc3ccc4c(c3)OCO4)ccc2O[C@@H]1CN(C)S(=O)(=O)c1ccccc1	29
COc1cc(OC)c(NC(=O)CSc2nnc(C)s2)cc1Cl	9
O=C(CC1NCCNC1=O)Nc1ccccc1[N+](=O)[O-] (centres undefined)	12
CCOC(=O)c1ccc(NC(=O)CSc2nc3ccc(C)cc3[nH]2)cc1	41
C[C@@H]1CN([C@H](C)CO)C(=O)Cc2cc(NS(=O)(=O)c3ccc(Cl)cc3)ccc2O[C@@H]1CN(C)Cc1ccccc1	58
COc1ccc(OC)c(NC(=O)C2CC(=O)n3ncnc3N2)c1 (centres undefined)	-11
C[C@H]1CN([C@@H](C)CO)C(=O)Cc2cc(NC(=O)Cn3cnnn3)ccc2O[C@@H]1CN(C)C(=O)Nc1ccccc1	-12
C[C@@H]1CN([C@H](C)CO)C(=O)c2cccc(NS(=O)(=O)c3ccccc3)c2O[C@H]1CN(C)CC1CCCCC1	-10
COc1ccc(NC(=O)N(C)C[C@H]2Oc3ccc(NC(=O)c4ccncc4)cc3CC(=O)N([C@H](C)CO)C[C@H]2C)cc1	1
Cc1ccccc1-c1cc(C(=O)NCCCN2CCOCC2)c2cc(Cl)ccc2n1	-11
S=c1[nH]c(=S)c2cnc(N3CCc4ccccc43)nc2[nH]1	12
NC(=O)C1(N2CCCCC2)CCN(C(=S)NCc2ccco2)CC1	16

Look-ups from above.
Value of Cc1ccccc1-c1cc(C(=O)NCCCN2CCOCC2)c2cc(Cl)ccc2n1 in NOMO-1 viab: -11
Value of S=c1[nH]c(=S)c2cnc(N3CCc4ccccc43)nc2[nH]1 in NOMO-1 viab: 12
Value of C[C@H]1CN([C@@H](C)CO)C(=O)Cc2cc(NC(=O)Cn3cnnn3)ccc2O[C@@H]1CN(C)C(=O)Nc1ccccc1 in NOMO-1 viab: -12
Value of COc1ccc(S(=O)(=O)Nc2ccc3c(c2)C(=O)N([C@H](C)CO)C[C@@H](C)[C@H](CN(C)C(=O)NC(C)C)O3)cc1 in NOMO-1 viab: -21
Value of COc1cc(OC)c(NC(=O)CSc2nnc(C)s2)cc1Cl in NOMO-1 viab: 9
